High-throughput results: PubChem BioAssay, National Center for Advancing Translational Sciences (NCATS)
gsp antag: antagonizes gsp, the McCune-Albright syndrome mutation; gsp-mutant cells, cAMP HTRF, 30 min; control for the full effect not named in the record; AID 624288; Potency, µM (top dose mostly 76.9 µM), inactives show top-dose activity change, negative = inhibition, usual class: inhibitors; hit rate 0.4% among 340,000; active = falling curve of any shape with a large fitted effect; inconclusive = falling curve, mostly with a smaller effect; inactive = flat or rising curve; cell line not stated here;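 note: intracellular cAMP measured with PDE inhibitor Ro 20-1724 present during compound exposure; potency is the fitted concentration of half-maximal effect; % is set by controls: 0 for no effect and ±100 for the full control effect; nearly all actives have a fitted effect of over 65% in size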
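HTRF cAMP read-out (cAMP-d2 plus anti-cAMP antibody-K in lysis buffer, 30 min RT). Before lysis, cells are exposed to compounds with […] for 30 min at 37C in DPBS containing Ca/Mg, BSA and Tween 20.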
TRPML1 blocker: human mucolipin-1 channel inhibition. Q9GZU1. TRPML1-inducible cells, Ca2+ dye fluorescence, FDSS; hits give low values; inhibition of EC80 agonist-evoked calcium signal. activity change, negative = inhibition, % (concentration not given with the values). hit rate 0.02% among 390,000; in the data active means activity change below about -50%; inconclusive means about -30% to -50%; inactive means above about -30%;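 note: stimulus is agonist 54-4 at its EC80 concentration; % is set by controls: 0 for no effect and ±100 for the full control effect; compound concentration not given in the record; the text of the record puts the active cut at -80%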
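Calcium fluorescence in TRPML1-DL cells induced overnight with Tet: a 110 s read after compound pin addition, then a 110 s antagonist read after challenge with 54-4 at 4 uM final (EC80).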
Sfp PPTase inh: blocks B. subtilis Sfp PPTase activity. Q9F4F7. Biochemical Sfp PPTase activity, qHTS. Potency, µM, inactives show max response, negative = inhibition, actives largely listed as inhibitors. hit rate 3.5% among 310,000. AID 1490; active = well fitted inhibition curve with a large enough effect; inconclusive = small, poorly fitted or top-dose-only effect, or another doubt; inactive = no such curve, though single readings can be large or run the other way;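 note: the enzyme is Sfp with the accession as filed and its product quenches rhodamine fluorescence; potency is the fitted concentration of half-maximal effect; 0% = enzyme reaction without inhibitor and -100% = no enzyme wells; top concentration of the series not given in the record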
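Step 1, compound plus 15 nM Sfp-PPTase, 15 min, room temperature. Step 2, add rhodamine-CoA (5 uM) and BHQ-2-YbbR (12.5 uM). Step 3, read 525/598 nm fluorescence at 0 and 30 min.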
gsp agonist: agonists of gsp mutant (McCune-Albright syndrome). Potency, µM (titrated, usually from 76.9 µM), for the others: top-dose activation (cAMP increase), most hits filed as activators. AID 624287. hit rate 0.13% among 340,000. gsp mutant cells, cAMP HTRF, 30 min; control for the full effect not named in the record; active = well fitted activation curve with a large enough effect; inconclusive = small, poorly fitted or top-dose-only effect, or another doubt; inactive = no such curve, though single readings can be large or run the other way; cell line not stated here;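 note: phosphodiesterase inhibitor Ro 20-1724 added with compounds to block cAMP breakdown; potency is the fitted concentration of half-maximal effect; nearly all actives have a fitted effect of over 60% in size; about a fifth of the inactives were tested at one dose only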
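Cells in DMEM/10% FBS with G418 were pretreated with compounds in DMSO plus […] (300 uM stock) for 30 min at 37C. cAMP was measured by HTRF (cAMP-d2 plus anti-cAMP antibody-K) after 30 min at room temperature.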
Menin-MLL FL inh: inhibitors of human menin-MLL interaction, wild-type MLL peptide; Fluorescence polarization, fluorescein-MLL peptide displacement from menin; FP activity change, % at 61.4 µM; 290,000 tested, under 10 active; AID 1766; inconclusive = falling polarisation curve, or a change in total fluorescence; inactive = total fluorescence flat and polarisation flat or rising; no compound was filed as active; the % refers to the polarisation; negative = inhibition;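 note: % of control where 0% means no effect; inhibitors lower the polarisation; unlabelled MLL peptide was the positive control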
TRPV1 potentiator: human TRPV1 potentiation. Q8NER1. TRPV1-expressing cells, Fluo-8 calcium influx, capsaicin EC20 potentiation; host cell line not named in the record; control for the full effect not named in the record. potentiation, % at 8.33 µM. hit rate 0.02% among 320,000. AID 540277; active means potentiation above 80%; inconclusive means 30% to 80%; inactive means below 30%; note: 0% is about no effect
Target sequence (Q8NER1 whole entry, looked up): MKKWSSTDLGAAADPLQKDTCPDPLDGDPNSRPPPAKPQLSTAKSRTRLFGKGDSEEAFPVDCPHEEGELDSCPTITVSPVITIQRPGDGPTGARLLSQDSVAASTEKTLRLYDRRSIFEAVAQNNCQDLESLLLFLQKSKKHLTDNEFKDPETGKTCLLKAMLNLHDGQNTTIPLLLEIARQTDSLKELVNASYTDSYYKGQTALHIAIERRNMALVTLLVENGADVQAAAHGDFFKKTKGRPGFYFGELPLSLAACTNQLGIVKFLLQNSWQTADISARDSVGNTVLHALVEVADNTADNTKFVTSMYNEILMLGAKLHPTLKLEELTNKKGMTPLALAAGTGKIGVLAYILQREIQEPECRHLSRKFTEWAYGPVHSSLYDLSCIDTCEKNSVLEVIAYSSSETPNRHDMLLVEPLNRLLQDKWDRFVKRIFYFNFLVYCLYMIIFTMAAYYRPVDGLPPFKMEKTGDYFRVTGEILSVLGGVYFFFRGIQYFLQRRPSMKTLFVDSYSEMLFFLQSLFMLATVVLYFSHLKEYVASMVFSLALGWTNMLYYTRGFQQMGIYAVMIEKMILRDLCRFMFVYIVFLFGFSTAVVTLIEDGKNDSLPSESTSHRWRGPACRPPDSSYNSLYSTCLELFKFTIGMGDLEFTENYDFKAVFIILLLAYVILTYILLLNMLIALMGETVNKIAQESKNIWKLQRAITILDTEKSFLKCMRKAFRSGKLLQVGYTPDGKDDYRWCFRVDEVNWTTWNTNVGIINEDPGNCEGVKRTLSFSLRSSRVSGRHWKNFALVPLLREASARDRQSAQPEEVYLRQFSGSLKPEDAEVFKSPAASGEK
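TRPV1-expressing cells were cultured overnight at 35.5C and loaded with Fluo-8 calcium dye for 40 to 90 min at room temperature. After a 10 s baseline, compound was added and calcium influx was read kinetically for 3 min (ex 480/em 520 nm).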
ClpP mod: qHTS Assay for Activators of ClpP; purified B. subtilis ClpP, FRET peptide cleavage, 20 min; hit rate 1.9% among 340,000; ATP-dependent Clp protease proteolytic subunit (Bacillus subtilis (strain 168)), P80244; Potency, µM (titrated, usually from 57.5 µM), without a hit: top-dose activity change, negative = active; active = well fitted falling curve with a large enough effect; inconclusive = small, poorly fitted or top-dose-only effect; inactive = no such curve, though single readings can be large or run the other way; note: potency is the fitted concentration of half-maximal effect; the source files actives as falling curves though it sought activators and does not explain the sign; nearly all actives have a fitted effect of over 65% in size; many hits overshoot -100%
Target sequence (P80244 whole entry, looked up): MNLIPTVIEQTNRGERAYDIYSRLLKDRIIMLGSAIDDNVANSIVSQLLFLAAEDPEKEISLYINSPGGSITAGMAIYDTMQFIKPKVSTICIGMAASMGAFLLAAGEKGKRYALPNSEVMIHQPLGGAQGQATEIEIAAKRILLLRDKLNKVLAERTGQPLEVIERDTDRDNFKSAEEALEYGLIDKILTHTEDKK
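Buffer: 100 mM Tris/HCl pH8, 100 mM KCl, 0.05% low protease BSA, 2.5% glycerol, 0.01% Tween-20. ClpP 10 microg/mL final; 20 min RT; delta FRET normalized to ADEP and DMSO controls.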
Active calls of the source: *; ? = inconclusive; nt = not tested or not shown; & = joins results of further samples; ! = a repeat was not active; [ ] = dose if it differs, or a comment.

SMILES	gsp antag	TRPML1 blocker	Sfp PPTase inh	gsp agonist	Menin-MLL FL inh	TRPV1 potentiator	ClpP mod
Cc1ccc(C)c(OCCn2cc(/C=C(/C#N)C(=O)NCC3CCCO3)c3ccccc32)c1 (stereo not given)	-8.5%	1.6	?	4.9%	17.4	-2.6	-1.2%
O=C(CN(Cc1ccco1)S(=O)(=O)c1ccccc1)N/N=C/c1cccc(O)c1	7.3%	-26.8	8.6%	-27.8%	8.2	3.5	-2.2%
Cc1cc(C(=O)N2CCN(C(c3ccccc3)c3ccccc3)CC2)no1	-30.1%	4.8	-3.8%	33.7%	-1.7	-26.0	1.1%
O=C(NCc1ccco1)c1ccc(S(=O)(=O)N2CCCCCC2)cc1	-10.7%	15.4	nt	1.2%	nt	-1.4	1.6%
CCCCOc1ccc(C(=O)OCC(=O)NC2CCCC2)cc1	-1.7%	-12.6	5.1%	9.8%[15.4 µM]	-1.3	2.9	0.4%
COc1ccc(CCNC(=O)CCCCCN2C(=O)c3ccccc3C2=O)cc1OC	5.4%	-11.9	?	-0.9%[15.4 µM]	3.3	3.3	-1.1%
CCOc1ccc(Cn2c(=O)sc3ccccc32)cc1	-7.9%	-27.0&11.2	-12.7%	?	-2.2	-11.2	2.5%&0.1%
O=C(CNS(=O)(=O)c1ccccc1)OCC(=O)c1ccc(F)cc1	-12.5%	-2.5	2.4%	4.0%	-9.0	9.5	nt
CCCn1c(/C=C/c2ccccc2)nc2ccccc21	?	-1.6&18.0	?	-0.3%	-2.7	-19.3	12.6µM*!
O=C(CNCc1ccc(Cl)cc1)Nc1ccc(C(=O)N2CCCCC2)cc1	-4.0%	2.4	?	-22.0%	-2.6	-19.4	nt
CC(Oc1ccccc1)C(=O)N1CCc2ccccc2C1 (stereo not given)	3.3%	-4.1	6.6%	-3.1%	-2.3	-37.4	0.5%
CNC(=S)NCCc1ccccc1	14.8%	-2.5	14.4%	-2.7%[15.4 µM]	1.4	-29.2	nt
CC(=O)N(Cc1cc(=O)[nH]c2ccccc12)c1cccc(C)c1	3.4%	-7.7	44.7µM*	0.8%	13.2	0.7	-16.5%
O=C(CN1C(=O)C2CC=CCC2C1=O)Nc1nc(-c2ccc(F)c(F)c2)cs1 (stereo not given)	-13.7%	-5.3	nt	0.0%	nt	nt	-0.1%
Cc1cc(C(=O)NNC(=O)c2ccc(Cl)cc2)no1	0.0%	15.9	5.2%	26.2%[15.4 µM]	-2.0	23.4	nt
CC(=O)Nc1cccc(NC(=O)CCCC2CCCCC2)c1	0.4%	9.0	-1.0%	-53.0%[inhibitor]	nt	5.6	0.2%
COC(=O)c1cccc(NC(=O)c2cnn(C)c2)c1	0.3%	-15.9	nt	20.8%	nt	nt	nt
Cc1cccc(OCC(=O)NCCCNC(=O)c2ccncc2)c1	13.2%	4.9	15.6%	-3.0%	nt	-4.2	1.5%
COCc1c(C(=O)OCC(=O)NCCN2C(=O)CSC2=O)oc2ccccc12	8.6%	4.9	0.6%	-5.7%	-0.5	-1.5	?
CCCCCCCCN1[C@@H](CC(=O)OCC)c2ccc(C(F)(F)F)cc2S1(=O)=O	-0.2%	3.4	nt	-3.3%	nt	nt	0.1%&3.0%
CCn1nnnc1NC(=O)c1cccc(OC)c1	16.8%	-3.0	7.0%	-27.2%[15.4 µM]	0.2	4.1	nt
Cc1ccc(NCc2n[nH]c(=S)n2-c2ccccc2)cc1Cl	-4.4%	-6.1	2.4%	0.0%[15.4 µM]	-3.6	3.9	nt
Cc1c(Cl)c(=O)oc2cc(OC(C)C)ccc12	0.4%	0.5	-1.7%	0.5%	nt	-24.6	-1.2%
CC(=O)c1c(C)[nH]c(C(=O)NCc2ccccc2Cl)c1C	-17.6%	-10.1	9.9%	-32.7%[inhibitor]	3.5	25.7	-4.0%
CCC(C)NC(=O)CS(=O)Cc1nc(-c2cccc(OC)c2)oc1C (stereo not given)	2.5%	-9.8	-7.8%	9.6%	1.3	-16.3	-14.0%
SMILES	gsp antag	TRPML1 blocker	Sfp PPTase inh	gsp agonist	Menin-MLL FL inh	TRPV1 potentiator	ClpP mod
CN(C)CCn1cnc2c1c(=O)n(C)c(=O)n2C	7.1%	-11.3	7.6%	-1.7%	nt	5.3	1.1%
COc1ccc(NC(=O)N(C)C[C@H]2OCc3cnnn3CCCC(=O)N([C@@H](C)CO)C[C@H]2C)c(OC)c1	nt	8.9	nt	-32.8%[inhibitor]	nt	nt	0.7%
COc1cc(NC(=O)C2CCCN(c3ncccn3)C2)cc(OC)c1 (stereo not given)	9.1%	17.1	1.9%	-35.5%[inhibitor]	10.3	-3.1	-15.7%
O=C(NCCc1ccccc1)C(=S)N1CCCCC1	7.6%	-3.6	20.6%	-1.7%	-3.1	2.3	nt
CN(C(=O)COC(=O)c1cc[n+]([O-])cc1)c1ccccc1	7.9%	10.4	23.6%	10.7%	nt	-2.2	0.0%
Cc1ccc(NC(=O)CS(=O)CC(=O)NC23CC4CC(CC(C4)C2)C3)cc1 (stereo not given)	9.8%	-12.8	10.9%	14.6%	3.1	-2.2	nt
Cc1ccc(C(=O)C2CC2)c(C)c1	2.7%	60.8	nt	?	nt	nt	nt
CCn1ncc(Br)c1C(=O)Nc1cccc(C(C)=O)c1	-1.3%	2.5	3.1%	-12.5%	3.2	14.1	nt
O=c1cc(-c2ccccc2Cl)oc2cc(O)cc(O)c12	-15.3%	23.0	-10.5%	5.4%	10.2	0.9	-0.8%
CCN(CC)S(=O)(=O)c1ccc(NS(=O)(=O)c2ccc(F)cc2)cc1	4.2%	?	20.3%	3.8%	-3.0	10.7	-1.1%
O=[N+]([O-])c1cccc(S(=O)(=O)Nc2cccc(-c3ccc(N4CCOCC4)nn3)c2)c1	?	4.7	nt	-6.3%[15.4 µM]	nt	8.0	1.3%
Cc1ccccc1CNc1nnnn1C	-1.6%	-17.4	23.0%	?	-1.2	-0.5	0.5%
Nc1nncn1C(=O)CCCOc1ccc(Cl)cc1Cl	-6.4%	8.4	3.4%	39.6%	2.4	1.9	0.7%
Cc1ccc(NCC(=O)N/N=C/c2cccc(Oc3ccccc3)c2)cc1	-6.7%	-10.2	14.2%	-0.7%[15.4 µM]	1.6	0.1	-3.6%
CN(C)CCOc1ccccc1-c1ccccc1	1.9%	12.1	?	5.4%	7.7	1.2	2.7%
O=C(COc1ccc(Br)cc1Br)NC(=O)NC1CCCC1	nt	30.6	0.4%	-12.2%[15.4 µM]	-0.3	-4.6	nt
O=C(CCN1C(=O)C2C3C=CC(C3)C2C1=O)Nc1ccccc1F (stereo not given)	3.4%	12.1	18.4%	34.8%	0.1	-5.3	0.7%
O=C(Cn1c(=O)[nH]c2ccccc2c1=O)N1CCN(c2cccc(Cl)c2)CC1	-3.7%	11.2	22.3%	10.1%[15.4 µM]	0.3	-3.6	31.6µM*
Cc1cc(Nc2nc(Cl)c(Cl)cc2Cl)n(-c2ccccc2)n1	-10.7%	47.7	-1.6%	24.6%	1.3	0.7	-2.4%
CN(Cc1ccccc1)C(=O)c1ccc2c(c1)S(=O)(=O)N=C1CCCCCN12	-4.4%	8.1	nt	14.1%	nt	nt	nt
O=C(O)CCC(=O)OCc1c(-c2ccccc2)ncc2ccccc12	-15.7%	-5.8	nt	-55.1%[inhibitor]	nt	-0.4	-4.7%
COc1cccc(-n2nnc3c(=O)n(Cc4ccccc4F)cnc32)c1	-1.0%	-7.4	2.3%	4.9%	1.9	5.6	-4.2%
COC(=O)C1CCN(C(=O)COC(=O)c2cccc(NS(=O)(=O)c3ccccc3)c2)CC1	-8.6%	2.9	nt	-29.4%	nt	3.6	-2.0%
COc1ccc(-c2ccc3c(c2)c(-c2cccs2)c(-c2cc(OC)cc(OC)c2)n3C)cc1	?	11.1	nt	0.6%	nt	1.2	4.0%
CCCNC(=O)Cn1c(=O)/c(=C/c2ccc(-c3ccc([N+](=O)[O-])cc3)o2)s/c1=C\C(=O)C(C)(C)C	-13.0%	-10.6	nt	?	nt	nt	nt
SMILES	gsp antag	TRPML1 blocker	Sfp PPTase inh	gsp agonist	Menin-MLL FL inh	TRPV1 potentiator	ClpP mod
Cc1cc(N)n(-c2ccc(S(=O)(=O)N3CCCC3)cc2[N+](=O)[O-])n1	1.4%	8.4	1.8%	7.1%[15.4 µM]	0.4	-17.3	nt
CCN(CC)S(=O)(=O)c1ccc2c(c1)c(=O)c(C(=O)NCCc1ccccc1)cn2C	-7.7%	-6.3&3.4	6.7%	5.8%	6.7	-13.8	-0.1%
C[C@@H]1CC[C@]2(O[C@@H](CCO)C[C@H](O)[C@H]2O)O1	13.3%	-6.4	5.1%	nt	2.0	0.3	-0.5%
CN(C)N1C(N)=C(C#N)C(c2ccc(Br)cc2)C2=C1CCCC2=O (stereo not given)	15.2%	-13.7	-1.3%	?	-7.9	-14.9	0.6%
c1ccc(-c2nnc(-c3ccccc3)nn2)cc1	4.1%	7.5	3.7%	6.5%	0.5	5.4	nt
CCOc1ccccc1NC(=O)Nc1cc(S(=O)(=O)N(C)C)ccc1C	12.8%	-0.2	15.9%	2.1%[15.4 µM]	2.2	5.6	nt
CCN(CC)C(=O)C1=C(C)N(Cc2ccc(F)cc2)C(=O)C(CC(=O)NCc2cccc3ccccc23)C1 (stereo not given)	nt	0.0	nt	-36.3%[inhibitor]	nt	nt	-3.6%
Cc1nn(-c2ccc(Cl)c(Cl)c2)c(=O)c2ccccc12	-2.1%	0.9	6.9%	3.4%	8.1	?	-2.4%
O=C(CSc1nnc(Cn2nnc3ccccc32)o1)N(Cc1ccc(F)cc1)c1ccccc1	?	15.1	2.3%	7.1%	1.8	3.7	0.5%
O=C(Nc1nnc(C2CC2)s1)C1CCCO1 (stereo not given)	2.1%	20.3	27.8%	11.6%[15.4 µM]	0.2	1.2	-1.5%
CC(=O)N1CCN(C(=O)c2cc(S(=O)(=O)N3CCN(c4ccccc4)CC3)ccc2Cl)CC1	1.6%	8.8	nt	4.2%	nt	?	1.4%
CCN(CC)c1c([N+](=O)[O-])ncn1C	1.5%[15.4 µM]	46.0	3.5%	-11.6%	0.9	3.4	0.7%
COc1ccc(-c2nc3cc([N+](=O)[O-])ccc3o2)cc1	10.6%	-3.2	13.1%	-1.4%[15.4 µM]	-4.7	-0.1	nt
COc1cc2c(cc1OC)C(C)N(C(=O)CCN1C(=O)C3C4C=CC(C4)C3C1=O)CC2 (stereo not given)	-2.3%	-2.6	15.4%	-2.0%	1.6	8.3	-6.1%
